From PubChem BioAssay
LYPLA2 inh – counter-screen for PME1 inhibitors: inhibitors of human LYPLA2. O95372. 320,000 compounds, 0.38% hits. inhibition, % at 5.9 µM. AID 2177. recombinant LYPLA2, FP-Rh probe fluorescence polarization;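 active means inhibition above the screen-wide mean plus 3 SD, limit set per campaign, cut at about 26% in these data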;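 further: 0% = LYPLA2 with DMSO and 100% = wells lacking LYPLA2 enzyme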
Target sequence (O95372 whole entry, looked up): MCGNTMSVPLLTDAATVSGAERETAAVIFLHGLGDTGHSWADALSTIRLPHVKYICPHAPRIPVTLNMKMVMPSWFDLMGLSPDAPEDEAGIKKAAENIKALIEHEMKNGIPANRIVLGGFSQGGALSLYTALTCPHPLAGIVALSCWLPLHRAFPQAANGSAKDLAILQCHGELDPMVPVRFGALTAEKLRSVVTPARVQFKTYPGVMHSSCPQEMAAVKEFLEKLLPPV
LYPLA1 inh – blocks human lysophospholipase 1, a PME1 counter-screen; O75608; recombinant LYPLA1, FP-Rh probe fluorescence polarization; inhibition, % at 5.9 µM; 320,000 compounds, 0.16% hits;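 active means inhibition above the mean of all tested compounds plus 3 SD, set per campaign, cut at about 14% in these data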;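 further: inhibitors block serine hydrolase probe labeling of LYPLA1 so polarization falls; 0% = enzyme with DMSO and 100% = wells lacking LYPLA1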
Target sequence (O75608 whole entry, looked up): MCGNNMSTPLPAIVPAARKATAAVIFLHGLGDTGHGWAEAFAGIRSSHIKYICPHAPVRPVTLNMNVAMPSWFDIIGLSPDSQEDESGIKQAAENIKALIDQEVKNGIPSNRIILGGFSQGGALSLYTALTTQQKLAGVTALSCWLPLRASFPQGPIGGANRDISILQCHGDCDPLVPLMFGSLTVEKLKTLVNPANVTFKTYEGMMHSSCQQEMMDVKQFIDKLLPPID
PAFAH1B3 FP inh – inhibitors of human PAFAH1B3; recombinant PAFAH1B3, FP-rhodamine probe, fluorescence polarization; 340,000 compounds, 0.28% hits; AID 492972; Q15102; inhibition, % at 3.39 µM;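 active means inhibition above the screen-wide average of all tested compounds plus 3 SD, cut at about 25% in these data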;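 further: 0% = enzyme with DMSO only and 100% = wells lacking PAFAH1B3 protein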
PME-1 primary – PME-1 (human) inhibition; Q9Y570; recombinant PME-1, FP-Rh probe fluorescence polarization; inhibition, % at 5.9 µM; 320,000 compounds, 0.53% hits; AID 2130;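 active means inhibition above the campaign mean of all compounds plus 3 SD, cut at about 26% in these data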;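 further: competitive labeling of PME-1 active site by serine hydrolase directed probe; 0% = PME-1 with DMSO and 100% = wells lacking PME-1 enzyme; inhibitors block probe labeling so polarization falls and inhibition rises; many of its hits are not listed in these tables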
Target sequence (Q9Y570 whole entry, looked up): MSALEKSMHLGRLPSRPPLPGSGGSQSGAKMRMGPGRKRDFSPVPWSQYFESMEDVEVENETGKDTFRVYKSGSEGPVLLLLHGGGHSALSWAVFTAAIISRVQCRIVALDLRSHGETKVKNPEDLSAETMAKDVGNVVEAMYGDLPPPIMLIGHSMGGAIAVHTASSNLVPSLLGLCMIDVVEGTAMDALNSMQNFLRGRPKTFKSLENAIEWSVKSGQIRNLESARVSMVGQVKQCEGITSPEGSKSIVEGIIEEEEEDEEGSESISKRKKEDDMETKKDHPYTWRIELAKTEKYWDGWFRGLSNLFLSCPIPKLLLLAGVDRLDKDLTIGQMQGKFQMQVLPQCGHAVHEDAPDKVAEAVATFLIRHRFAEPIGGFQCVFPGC
PAFAH2 FP inh – PAFAH2 (human) inhibition; Q99487; recombinant PAFAH2, FP-rhodamine activity probe, fluorescence polarization; inhibition, % at 3.39 µM; 340,000 compounds, 0.99% hits; AID 492956;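 active means inhibition above the mean over all tested compounds plus 3 SD, cut at about 30% in these data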;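 further: inhibitors block probe labeling of enzyme so polarization drops; 0% = enzyme with DMSO and 100% = wells lacking PAFAH2 protein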
PAD4 FP inh – inhibitors of human PAD4; inhibition, % at 6.36 µM; recombinant PAD4, RCA probe fluorescence polarization; AID 485272; Q9UM07; 330,000 compounds, 0.41% hits;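 active means percent inhibition above a cutoff equal to the mean of all tested compounds plus 3 SD, cut at about 15% in these data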;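 further: 0% = PAD4 with RCA probe and DMSO and 100% = probe without PAD4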
Starred values were filed as active, the others as inactive; / = no result given.

The line under a structure holds: PME-1 primary | PAFAH1B3 FP inh | LYPLA2 inh | PAD4 FP inh | PAFAH2 FP inh | LYPLA1 inh
Cc1ccc(OCC(=O)Nc2cccc(S(=O)(=O)NC3=NCCCCC3)c2)cc1C
    -1 | -7 | 7 | 0 | 1 | 0
Cc1cc(NC(=O)CSc2n[nH]c(CC(C)C)n2)no1
    -2 | 1 | 9 | 2 | -1 | -1
C=CCn1c(CCNC(=O)c2cccs2)nnc1SCC(=O)Nc1cccc(F)c1
    2 | 8 | -1 | -3 | 6 | -5
CS(=O)(=O)N1CC(C(=O)NC2CC2)Oc2ccc(Cl)cc21 (stereo unspecified)
    -3 | -2 | -4 | -2 | 3 | -5
Cc1nc2ccccc2c2oc(C(=O)Nc3ccc4c(c3)OCCO4)cc12
    -38 | 5 | -14 | 0 | -1 | -12
COc1ccccc1NC(=S)N1CC(C)(C)C1=O
    0 | 7 | 0 | -5 | 3 | 2
O=C(O)c1cccc(S(=O)(=O)Nc2ccc(-c3ccccc3)cc2)c1
    / | 4 | / | -3 | -2 | /
COc1ccc(C(C#N)Nc2ccccc2OC)cc1 (stereo unspecified)
    -9 | 6 | -1 | -2 | 4 | 1
Cc1nc2sc3c(c2c2nnc(SCC(=O)NCc4ccco4)n12)CCCC3
    11 | 1 | -1 | 0 | 2 | -2
O=C(CSc1nnc(COc2ccccc2)o1)N1CCN(c2ccccc2)CC1
    0 | 7 | 2 | -2 | -2 | 7
CCOC(=O)N1CCC(NC(=O)c2ccc3c(c2)N=C(C)c2c(C)ccc(C)c2S3)CC1
    -4 | 4 | 1 | 0 | 6 | -5
Cc1ccc(C2NC(=O)c3ccccc3N2)s1 (stereo unspecified)
    2 | 4 | 6 | -2 | 0 | 4
CC1(C)CC(=O)C(=C2SCCCS2)C(=O)C1
    2 | 6 | 5 | -3 | 1 | -1
O=C(COC(=O)CSc1ccccc1)NCCNC(=O)COC(=O)CSc1ccccc1
    4 | 2 | 9 | -4 | -2 | 5
COc1ccc(CCNC(=O)Cn2nnc(-c3ccc(N4CCOCC4)cc3)n2)cc1OC
    7 | 5 | -5 | -1 | 2 | 4
CCOC(=O)CSc1nnc(NCC(=O)OC(C)C)c(=O)[nH]1
    -2 | -7 | -10 | 4 | -1 | -3
C/C(CC(=O)Nc1c(C)cc(C)cc1C)=N\NC(=O)OC(C)(C)C
    -6 | 5 | 4 | -1 | 10 | 1
COc1ccc(C(=O)Nc2ccc(C(=O)Nc3cccnc3)cc2)cc1
    -10 | 7 | 2 | -1 | -9 | 0
CCOC(=O)N1CCN(C(=O)Nc2ccc3nc(C)sc3c2)CC1
    -5 | 10 | -4 | 2 | 1 | 2
O=C(CSc1ccc2nnc(CCNC(=O)c3ccccc3)n2n1)Nc1ccccc1F
    1 | 8 | -1 | -2 | -3 | -1

Looked up by compound from the entries so far (two):
The line under a structure holds: PME-1 primary | PAFAH1B3 FP inh | LYPLA2 inh | PAD4 FP inh | PAFAH2 FP inh | LYPLA1 inh
CCOC(=O)CSc1nnc(NCC(=O)OC(C)C)c(=O)[nH]1
    -2 | -7 | -10 | 4 | -1 | -3
Cc1ccc(C2NC(=O)c3ccccc3N2)s1 (stereo unspecified)
    2 | 4 | 6 | -2 | 0 | 4

New compounds follow
The line under a structure holds: PME-1 primary | PAFAH1B3 FP inh | LYPLA2 inh | PAD4 FP inh | PAFAH2 FP inh | LYPLA1 inh
O=C(O)Cn1c(O)c(C2=c3ccccc3=NC2=O)sc1=O
    -2 | 14 | -4 | 4 | -7 | -3
Cc1oc(-c2ccc(-c3ccccc3)cc2)nc1CN(C)C1CCOC1 (stereo unspecified)
    -2 | 1 | -3 | 3 | 3 | -2
CC(C#CCN1CCCCC1)OCCOCc1ccccc1 (stereo unspecified)
    -1 | -2 | -1 | -7 | 0 | -1
COc1cc(-c2nc3ccccn3c2NCC2CCCO2)ccc1O (stereo unspecified)
    0 | -2 | 1 | 3 | -6 | -1
CCCCNc1nc2c(c(=O)n(C)c(=O)n2C)n1CCC
    5 | -5 | -3 | 3 | 1 | -1
O=S(=O)(NC1CCN(Cc2ccccc2)CC1)c1cccc2cccnc12
    3 | 11 | -1 | 2 | 2 | 0
O=C(c1cc(-c2cccs2)nc2ccccc12)N1CCN(S(=O)(=O)c2cccc(F)c2)CC1
    -1 | 5 | -7 | -8 | -4 | 0
CC[C@H](C)[C@H](NC(N)=O)C(=O)Nc1ccc(S(=O)(=O)NC(C)C)cc1
    -3 | -1 | 3 | 2 | -10 | 1
COC(=O)CCc1sc(Nc2ccccc2)nc1-c1ccc(OC)cc1
    -3 | 3 | 1 | -1 | 8 | -3
CCOc1ccc(NC(=O)CN(C)C(=O)c2cccnc2Sc2ccc(Cl)cc2)cc1OCC
    -1 | 4 | 2 | 3 | -2 | 0
COc1ccc(OC)c([C@@H]2OCCC=C[C@H]2C)c1
    5 | 9 | 4 | 0 | 3 | 2
CC(=O)Nc1ccc(C=NNC(=O)c2ccc(NS(=O)(=O)c3cccs3)cc2)cc1
    / | 9 | / | -1 | 1 | /
O=C(NC1(C(F)(F)F)C(=O)Nc2c1c(=O)[nH]c(=O)n2-c1ccccc1)c1cccnc1 (stereo unspecified)
    -5 | 11 | -1 | -3 | -9 | -2
Oc1ccc(C(c2nnnn2C2CCCC2)N2CCc3ccccc3C2)cc1 (stereo unspecified)
    -4 | 17 | 3 | 5 | -1 | -1
O=C(Nc1cccnc1)c1sc(Nc2ccccc2F)nc1-c1ccccc1
    -4 | 2 | 1 | 3 | 3 | -2
COC(=O)c1cc2ccsc2n1Cc1ccccc1F
    3 | 7 | 2 | -3 | -4 | -1
O=C(C(c1ccccc1)N1CCOCC1)N1CCOCC1 (stereo unspecified)
    0 | 11 | 6 | -4 | 0 | 5
O=C(CSc1nnc(COc2ccc(Cl)cc2)o1)N1CCOCC1
    1 | 11 | -2 | 0 | 10 | 2
CC(C)Sc1nc2sc3c(c2c2nnc(SCC(=O)NCc4ccco4)n12)CCCC3
    -7 | -11 | -11 | 0 | -4 | -7
O=C1Nc2c(c(=O)[nH]c(=O)n2-c2ccc(F)cc2)C1(NS(=O)(=O)c1ccccc1)C(F)(F)F (stereo unspecified)
    1 | 2 | -7 | -1 | -9 | -2
COc1ccccc1-n1ccnc1SCC(=O)NC(C)(C)C
    -2 | 7 | 11 | -1 | 1 | 0
O=C(c1ccc(CSCc2ccccc2F)o1)N1CCN(c2ccc(N3CCOCC3)nn2)CC1
    4 | -12 | 6 | -5 | 14 | 1
C1CCC(n2nnnc2CN2CCN(C3CCCC3)CC2)CC1
    -2 | -1 | 3 | -1 | -1 | 1
COc1ccc(C(=O)Nc2cccnc2)cc1
    1 | -1 | -3 | 5 | 7 | 0
CC(=O)Nc1c(O)nc(SCC(=O)Nc2sc3c(c2C#N)CCCCCC3)[nH]c1=O
    8 | 1 | 3 | 10 | -1 | -2
Cc1ccc(-n2nnc3ccccc3c2=O)cc1C
    2 | 8 | 7 | -7 | 11 | -1
CC(=O)C1=C(O)C(=O)N(CCC(=O)O)C1c1cccc(F)c1 (stereo unspecified)
    -2 | 0 | -1 | -10 | 5 | -3
CCOC(=O)c1c(CSC(=N)N)n(-c2ccc(C)cc2)c2cc(Br)c(OC(C)=O)cc12
    1 | 1 | 4 | 7 | 4 | -2
CCOC(=O)N1CCN(C(=O)CSc2nnc(COc3ccc(Cl)cc3)o2)CC1
    4 | 4 | 7 | 2 | 4 | 3
Cc1ccc(-c2nc(CN(C)C3CCOC3)c(C)o2)s1 (stereo unspecified)
    -1 | 5 | 6 | -5 | 1 | 3

2 of the compounds above, as labelled records:
COc1ccc(C(=O)Nc2cccnc2)cc1
  PME-1 primary: 1; PAFAH1B3 FP inh: -1; LYPLA2 inh: -3; PAD4 FP inh: 5; PAFAH2 FP inh: 7; LYPLA1 inh: 0

CC(=O)Nc1c(O)nc(SCC(=O)Nc2sc3c(c2C#N)CCCCCC3)[nH]c1=O
  PME-1 primary: 8; PAFAH1B3 FP inh: 1; LYPLA2 inh: 3; PAD4 FP inh: 10; PAFAH2 FP inh: -1; LYPLA1 inh: -2

(list continues)
The line under a structure holds: PME-1 primary | PAFAH1B3 FP inh | LYPLA2 inh | PAD4 FP inh | PAFAH2 FP inh | LYPLA1 inh
Cc1cc(=O)n2[nH]c(-c3ccccc3Cl)cc2n1
    2 | -6 | -11 | 1 | 8 | -2
O=C1CCCC(=O)C1=C1SCCCS1
    -4 | 11 | 5 | 1 | 0 | 5
CC(Oc1ccc(F)cc1)C(=O)Nc1sc2c(c1C(=O)NCc1cccnc1)CCCC2 (stereo unspecified)
    -3 | -1 | -3 | -2 | 2 | -5
CC(=O)Cc1nsc(NC(=O)c2ccccc2)n1
    -2 | 5 | -3 | 2 | 4 | -3
CC1CCCN(C(=O)c2cc(-c3cccs3)nc3ccccc23)C1 (stereo unspecified)
    / | 7 | / | -2 | 2 | /
CC[C@H](C)[C@H](NC(N)=O)C(=O)Nc1ccc(NC(C)=O)cc1
    6 | 8 | 2 | 1 | -1 | -1
Cc1ccc(CNc2ncc(-c3ccc4c(c3)OCO4)n2C)cc1
    -4 | 6 | 4 | 0 | 9 | -1
Cc1n[nH]c(=O)nc1N1CCc2ccccc2C1
    4 | -2 | 0 | 0 | 3 | 0
O=S(=O)(c1cccc(C(F)(F)F)c1)N1CCC(O)(c2cccnc2)CC1
    -2 | 7 | 4 | 0 | 1 | 6
COC(=O)c1c(NC(=O)CN2CCN(Cc3ccc4c(c3)OCO4)CC2)sc(C)c1C
    2 | 4 | 0 | 0 | -8 | 2
COc1cc(C(=O)Nc2ccc(O)cc2)ccc1OC(C)=O
    -2 | 5 | 4 | -2 | -9 | -1
Cc1ccc(C2=NN3C(=O)c4ccccc4C3C2)cc1 (stereo unspecified)
    10 | 5 | -3 | 6 | 1 | 0
CCOC(=O)c1sc2c(c1C)c(=O)n(Cc1ccccc1)c(=O)n2CCN(C)C
    -2 | 6 | 4 | -2 | 3 | 2
COc1ccc(C(=O)N(CN2CCCC2=O)c2cc(C)on2)cc1OC
    2 | 6 | 6 | -3 | 1 | 0
Cc1nc2ccc(NC(=O)NCc3ccco3)cc2s1
    0 | -5 | -6 | -17 | 8 | -6
CCSCCOC(=O)C1=C(C)NC(=O)NC1c1cc(OC)ccc1OC (stereo unspecified)
    0 | 3 | -7 | -3 | -6 | 0
CC(C)C(c1nnnn1Cc1ccccc1)N(Cc1ccco1)Cc1cccs1 (stereo unspecified)
    -2 | 2 | 0 | -1 | -4 | -5
O=C1CC(N2CCC(c3nc4ccccc4[nH]3)CC2)C(=O)N1Cc1ccccc1 (stereo unspecified)
    9 | -1 | 5 | 0 | -3 | 2
O=S(=O)(Nc1cccnc1)c1ccc2c(c1)OCCO2
    4 | 9 | 9 | 1 | -2 | 1
c1ccc(C(c2nnnn2C2CCCCC2)N2CCc3ccccc3C2)nc1 (stereo unspecified)
    5 | 5 | 6 | -10 | 15 | 2
CC1CCN(C(=O)CSc2nnc(-c3ccc(S(=O)(=O)N4CCOCC4)cc3)n2C)CC1
    -6 | 11 | 0 | -3 | 0 | 3
O=C(NCc1ccc(Cl)cc1)c1ccc(COCC(F)(F)F)o1
    0 | 13 | 4 | 3 | 5 | 1
C=CCN(C(=O)Nc1ccc2oc(C)nc2c1)c1ccccc1
    -7 | -7 | -2 | 40* | -6 | -3
CCCCOc1ccc2c(c1)/C(=C(\C(Cl)=C(Cl)Cl)[N+](=O)[O-])N2
    15 | 3 | -8 | -11 | 3 | -7
CCC(=O)N(CCC(c1ccco1)C(C)C)Cc1ccccc1 (stereo unspecified)
    2 | -1 | 2 | 4 | 9 | -1
COc1ccc(CNc2nc3c(c(=O)n(Cc4ccc(Cl)cc4)c(=O)n3C)n2C)cc1
    8 | 8 | -2 | -4 | -1 | -4
Cc1n[nH]c(=O)nc1N1CCN(c2ccccc2)CC1
    1 | -3 | -1 | 0 | 4 | 0
CSc1ccc(Cl)c(C(=O)OCC(=O)NCc2ccco2)c1
    -1 | 4 | -3 | 2 | 6 | 1
CC1CN(C2CC(C)(C)NC(C)(C)C2)CCC1=O (stereo unspecified)
    5 | 4 | 0 | -1 | -2 | 2
COc1ccc(OCc2nnc(SCC(=O)N3c4ccccc4Sc4ccc(Cl)cc43)o2)cc1
    -6 | 0 | 2 | 3 | -8 | -7

This is a subset; the hit share may differ from the screen's.
